From PubChem
TAR Tat displ = HIV-1 TAR-Tat binding disruption; z-score (concentration not given with the values); HIV-1 TAR RNA, Tat peptide displacement FRET; stronger effect = higher value; 100,000 compounds, 0.6% hits;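 also: score is relative to mean and SD of negative controls; some compounds called inactive have numbers as strong as hits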
CDC25B-CDK2 inh = human CDC25B-CDK2/CyclinA binding inhibition; z-score (no concentration beside the values); HTRF CDC25B-CDK2/CyclinA binding, anti-His/anti-Flag; stronger effect = higher value; AID 1259370; 94,000 compounds, 0.72% hits; P30305+P24941;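 also: score is relative to mean and SD of negative controls; strong numbers were not always called active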
Starred values were filed as active, the others as inactive; . = not tested or not shown.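 The calls were made as follows: active = z-score from 3 up in half or more of its runs; inactive = the rest.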

SMILES | TAR Tat displ | CDC25B-CDK2 inh
COC(=O)c1cc2occc2n1CC(=O)Nc1cc(OC)cc(OC)c1 | 1 | -1.5
CCOc1cccc(=O)c2c(C)oc(C)c12 | -1.5 | -0.65
Cn1c(Cn2cnc3ccccc32)nc2ccccc21 | 0.68 | -0.13
CCCCC(O)(CCCC)C(=O)NN(c1ccc(Br)cc1)S(=O)(=O)c1ccc(C)cc1 | . | -3
COc1cc2c(cc1OC)CN(C(=O)c1ccco1)CC2 | 1.5 | 0.11
COC(=O)c1cc(S(=O)(=O)Nc2cc(OC)cc(OC)c2)c[nH]1 | 2.1 | .
Cc1ccc(/C(O)=C2\C(=O)C(=O)N(CCCN3CCOCC3)C2c2ccccc2)cc1 (configuration not stated) | 0.68 | -0.33
C=CCN1C(=O)C(O)(CC(=O)c2ccccc2O)c2ccccc21 (configuration not stated) | . | -0.31
CC1(C)C(=O)OC(c2ccc(Br)cc2)C2(CCCCC2)C1=O (configuration not stated) | 0.04 | 0.01
O=C(Cn1c(=O)n(Cc2ccccc2)c(=O)c2sc3ccccc3c21)N1CCCC1 | 0.77 | -0.32
COc1ccc(C2CC(=O)Nc3cc(OC)cc(OC)c32)c(OC)c1 (configuration not stated) | -1.1 | -0.3
CCN1CCN(c2ncc3c(n2)CCN(Cc2ccc(Cl)c(F)c2)C3)CC1 | 0.69 | .
CCOC(=O)C(C)NC(=O)c1sc2nc3n(c(=O)c2c1C)CCCC3 (configuration not stated) | 0.95 | .
O=C1N(Cc2ccccc2)C2CS(=O)(=O)CC2N1c1ccc(F)cc1 (configuration not stated) | 1.7 | .
O=C(NCc1ccc(F)cc1F)c1cc(C(F)(F)F)cc(C(F)(F)F)c1 | . | -1.6
CCN1CCN(c2ncnc3c2sc2nc4c(cc23)COC(C)(C)C4)CC1 | 0.33 | .
O=C1CC(c2ccccc2Cl)c2c(n[nH]c2-c2ccccc2)N1 (configuration not stated) | -0.42 | 0.86
CCCCOc1ccc(C2C(C(=O)OCC)=C(C)N=C3SCCC(=O)N32)cc1OCC (configuration not stated) | . | -0.04
CCCCc1nn2c(=O)cc(COC(=O)C(C)Oc3ccccc3)nc2s1 (configuration not stated) | 0 | .
O=C(CSc1nc2ccccc2s1)NCc1ccco1 | 0.77 | -1.6
COc1ccc(-c2noc(-c3nnn(-c4cc(OC)cc(OC)c4)c3N)n2)cc1 | 0.98 | .
O=C(NC1CCCCC1)C1CCCN(c2nnc(-n3cccc3)s2)C1 (configuration not stated) | 0.99 | -1.8
COc1ccc(Cl)cc1NS(=O)(=O)C1CCS(=O)(=O)C1 (configuration not stated) | 0.04 | -0.88
Cc1ccc2cc(-c3noc(C(C)C)n3)c(=O)[nH]c2c1 | -0.35 | -0.98
CCOc1ccc(C2C(C(=O)OC3CCCCC3)=C(C)NC3=C2C(=O)CC(C)(C)C3)cc1OC (configuration not stated) | 0.33 | -0.3

Among those listed so far, 3 contain a Cl atom.
SMILES | TAR Tat displ | CDC25B-CDK2 inh
CCN1CCN(c2ncc3c(n2)CCN(Cc2ccc(Cl)c(F)c2)C3)CC1 | 0.69 | .
O=C1CC(c2ccccc2Cl)c2c(n[nH]c2-c2ccccc2)N1 (configuration not stated) | -0.42 | 0.86
COc1ccc(Cl)cc1NS(=O)(=O)C1CCS(=O)(=O)C1 (configuration not stated) | 0.04 | -0.88

More records
SMILES | TAR Tat displ | CDC25B-CDK2 inh
CC(C)CCNC(=O)C1(C)Cn2nc(C(=O)NCCc3ccco3)cc2C(=O)N1C (configuration not stated) | 0.65 | .
Cc1ccc(Nc2cnn(-c3nc4ccccc4s3)c(=O)c2Cl)cc1C | -0.63 | -2.7
COC(=O)c1cccc(NC(=O)CC2C(=O)NCCN2C(=O)c2ccccc2)c1 (configuration not stated) | . | -0.53
Cc1nn(-c2ccccc2)c2c1-c1sc(C(=O)N3CCCC3)cc1CC2 | -0.32 | .
CCOC(=O)c1ccc(N2C(=O)c3n[nH]c(-c4ccco4)c3C2c2ccc(O)cc2)cc1 (configuration not stated) | -6 | .
COc1ccc(-c2cccc(NS(=O)(=O)c3ccc4c(c3)OCCO4)c2)nn1 | 0.79 | .
Cc1nc2sc3c(NCCc4ccccc4)ncnc3c2c2c1COC(C)(C)C2 | 0.45 | -1.4
CCOc1ccc2nc(N3CCCC(C(=O)N4CC(C)CC(C)C4)C3)sc2c1 (configuration not stated) | 1.4 | -0.51
Cc1sc(-c2cc3c([nH]c2=O)CC(c2ccccc2)CC3=O)nc1-c1ccc(Cl)cc1 (configuration not stated) | -4.7 | -0.17
NC[C@@H]1O[C@H](O[C@@H]2[C@@H](CO)OC(O[C@@H]3[C@@H](O)[C@H](N)C[C@H](N)[C@H]3OC3O[C@H](CN)[C@@H](O)[C@H](O)[C@H]3N)[C@@H]2O)[C@H](N)[C@@H](O)[C@@H]1O (some centres not stated) | 1.5 | .
CCOC(=O)N1CCN(c2c(N3CCN(c4ccccc4F)CC3)c(=O)c2=O)CC1 | 0.26 | -0.7
C=CCn1c(SCCCC)nc(O)cc1=O | 1.1 | -0.93
CCCn1c(C2CC(=O)N(c3ccccc3Cl)C2)nc2ccccc21 (configuration not stated) | 1.8 | -1.1
Clc1ccc(-c2nn3c(-c4ccco4)nnc3c3ccccc23)cc1 | -0.22 | -2.4
CCc1nnc2c(N3CCN(C4CCCCC4)CC3)nc3ccccc3n12 | -0.33 | .
O=C(c1ccc2c(c1)OCO2)N(c1ccc(Cl)cc1)C1C=CS(=O)(=O)C1 (configuration not stated) | . | -0.87
O=C(COc1ccccc1Cl)N(Cc1cccs1)c1ccccn1 | 0.65 | -1.4
O=C(c1sc2ncccc2c1-n1cccc1)N1CCC(N2CCCCC2)CC1 | 0.22 | .
CC(=O)N1c2ccc(S(=O)(=O)N3CCCC3C(=O)Nc3ccc(F)cc3)cc2CC1C (configuration not stated) | -0.32 | .
NC(=O)C1CCN([C@H]2CS(=O)(=O)C[C@@H]2S(=O)(=O)c2ccc(F)cc2)CC1 | 1.1 | -0.23
CCOC(=O)c1c(C)[nH]c(C)c1S(=O)(=O)N1CCC(C(=O)N2CCC(C)CC2)CC1 | 0.56 | .
COc1cccc(C2c3c(-c4ccccc4O)n[nH]c3C(=O)N2Cc2ccncc2)c1 (configuration not stated) | -1.7 | -1.7
COc1ccc(Br)cc1CNC(=O)Cn1ncn2cccc2c1=O | 0.2 | -2.1
O=C1CSCC(=O)N1c1ccc(F)c(F)c1F | . | -0.11
CCC(C)NC(=O)C1=Cc2cc(OC)ccc2OC1 (configuration not stated) | 0.08 | .

Compound profiles, from the list above.
O=C(NCc1ccc(F)cc1F)c1cc(C(F)(F)F)cc(C(F)(F)F)c1 is listed as TAR Tat displ: .; CDC25B-CDK2 inh: -1.6
CCCCc1nn2c(=O)cc(COC(=O)C(C)Oc3ccccc3)nc2s1 (configuration not stated) is listed as TAR Tat displ: 0; CDC25B-CDK2 inh: .

Further compounds
SMILES | TAR Tat displ | CDC25B-CDK2 inh
CCOC(=O)c1ccccc1NC(=O)CN(c1cccc(OC)c1)S(C)(=O)=O | . | -1
CCc1ccc(S(=O)(=O)c2cnc3ccc(C)cc3c2N2CCOCC2)cc1 | 1.1 | -0.75
CCc1cc(Nc2ccc3c(c2)OCCO3)n2ncnc2n1 | 1.3 | -1.1
COc1ccc(OC)c2c(=O)cc(C(=O)O)oc12 | . | -2.1
O=C(NCC1CCCO1)C(=O)Nc1c2c(nn1-c1cccc(Cl)c1)CSC2 (configuration not stated) | 0.91 | .
NC(=O)c1nnn(Cc2ccccc2Cl)c1N | . | -2.8
CCOC(=O)c1nc(NCc2ccccn2)c2oc3ccccc3c2n1 | -1 | .
CCOC(=O)c1ccc(-c2ccc(C3CC(=O)Nc4cc5c(cc43)OCO5)o2)cc1 (configuration not stated) | -0.07 | -0.31
Cc1noc(/C=C/c2cn(C)c3ccccc23)c1[N+](=O)[O-] | -8.2 | -0.07
CCOC(=O)C1CCCN(C(=O)NC2(C(F)(F)F)Oc3ccc(Cl)cc3O2)C1 (configuration not stated) | . | 0.18
Cc1ccc2oc(=O)n(CC(=O)N3CCOCC3)c2c1 | . | -2.3
CC1(C)Cc2c(sc(NC(=O)c3ccc(N4C(=O)C5C6C=CC(C6)C5C4=O)cc3)c2C#N)CO1 (configuration not stated) | . | -0.91
COc1cc2nc3sc(Nc4cccc(Cl)c4)nn3c(=O)c2cc1OC | 2.1 | .
CC(C)=NNC(=S)NC1CC2CCC1C2 (configuration not stated) | . | -1.6
CCN1CCN(c2ncc3c(n2)CCN(Cc2cccc(Cl)c2)C3)CC1 | 0.68 | .
Cc1cc(-c2ccc(S(=O)(=O)N3CCN(c4ccc(F)cc4)CC3)s2)n[nH]1 | 0.11 | .
O=C(NCCN1CCCC1)C1CCCN(c2nnc(N3CCCC3=O)s2)C1 (configuration not stated) | 1.8 | -1.9
O=C(Nc1ccc2c(c1)OCCO2)c1ccc(Oc2cc(Cl)cc(Cl)c2)o1 | . | -2.3
Cc1cccc(Cn2cc(S(=O)(=O)c3ccc(Cl)cc3)c(=O)c3cc4c(cc32)OCO4)c1 | -0.06 | 0.29
COc1ccc(-c2cn(-c3ccc(F)cc3)c(=S)[nH]2)cc1OC | . | -0.59
CCN1C(=O)C2(/C(=C(/O)c3ccc(C)c(F)c3)C(=O)C(=O)N2CCCOC)c2ccccc21 (configuration not stated) | -0.52 | -0.59
O=c1[nH]nnc2c1sc1nc(N3CCOCC3)c3c(c12)CCCC3 | . | -0.31
O=C1CCCN2N=C(SCC(=O)Nc3ccc(Br)cc3)SC2=N1 | . | -2
Cc1cc(C)cc(N2C(=O)c3ccc(-c4ccco4)n3CC2(C)C(=O)NC2CCCC2)c1 (configuration not stated) | 0.65 | .
Cc1ccc(-c2csc3ncnc(NCc4ccccc4)c23)cc1 | -0.32 | -1.2

Five entries drawn at random from those above, as already listed:
SMILES | TAR Tat displ | CDC25B-CDK2 inh
CCc1nnc2c(N3CCN(C4CCCCC4)CC3)nc3ccccc3n12 | -0.33 | .
O=C1CC(c2ccccc2Cl)c2c(n[nH]c2-c2ccccc2)N1 (configuration not stated) | -0.42 | 0.86
CCOc1cccc(=O)c2c(C)oc(C)c12 | -1.5 | -0.65
COc1cc2c(cc1OC)CN(C(=O)c1ccco1)CC2 | 1.5 | 0.11
CC1(C)C(=O)OC(c2ccc(Br)cc2)C2(CCCCC2)C1=O (configuration not stated) | 0.04 | 0.01

Back to the main list; the four compounds before the break are reprinted first.
SMILES | TAR Tat displ | CDC25B-CDK2 inh
O=c1[nH]nnc2c1sc1nc(N3CCOCC3)c3c(c12)CCCC3 | . | -0.31
O=C1CCCN2N=C(SCC(=O)Nc3ccc(Br)cc3)SC2=N1 | . | -2
Cc1cc(C)cc(N2C(=O)c3ccc(-c4ccco4)n3CC2(C)C(=O)NC2CCCC2)c1 (configuration not stated) | 0.65 | .
Cc1ccc(-c2csc3ncnc(NCc4ccccc4)c23)cc1 | -0.32 | -1.2
COc1ccc(-c2nnc(SCc3cc(=O)n4c5c(sc4n3)CCCC5)n2C)cc1 | 0.18 | .
CCc1nnc2sc(COc3cccc(C)c3)nn12 | 2.2 | -0.81
CC1CCN(c2nc(Nc3ccc(F)cc3)c3cnn(C)c3n2)CC1 | -0.69 | .
Cc1c(C(=O)NC2CCCC2)oc2ccc(S(=O)(=O)N3CC(C)CC(C)C3)cc12 (configuration not stated) | . | -1.1
Cc1ccc(OCc2nc(-c3ccncc3)no2)c(C)c1 | 0.77 | 1.5
Cc1cccc(C2N(c3ccc(Cl)cc3)C(=O)C3CCCN32)c1 (configuration not stated) | 3.4 | -2
Cn1c(=O)[nH]c(=O)c2c1nc(N1CCN(CCO)CC1)n2Cc1ccccc1F | 0.34 | -1.4
Cn1cc(S(=O)(=O)NCc2ccc(Cl)cc2)c(S(=O)(=O)NCc2ccc(Cl)cc2)c1 | 0.95 | .
COc1ccc(-c2cccc(NS(=O)(=O)N(C)C)c2)nn1 | 1.2 | .
Cc1c(C(=O)Nc2ccc(Cl)cc2)sc2nc3n(c(=O)c12)CCCCC3 | 0.78 | .
O=C(CSc1nc2c(c(=O)n1-c1ccc(Cl)cc1)SCC2)N1CCCc2ccccc21 | . | -0.09
CC(C)CCNC(=O)C1CCC(Cn2c(=O)c3sccc3n(CC(N)=O)c2=O)CC1 (configuration not stated) | 1.3 | .
Cc1noc2ncnc(NCCc3ccc(Cl)cc3)c12 | -0.67 | .
CCCC(=O)Oc1ccc(C2C(C#N)=C(N)OC3=C2C(=O)CC(C)(C)C3)cc1 (configuration not stated) | . | -0.88
CCCCN(CC)c1nc(-c2ccco2)c2c(c1C#N)CC(C)(C)OC2 | -1.5 | 1.3
O=C(CCCC1=NS(=O)(=O)c2ccccc2N1)N1CCc2ccccc2C1 | . | -0.68
Cc1ccc(OCCSc2nc(-c3ccco3)nc3cc(=O)[nH]n23)cc1Cl | -1.4 | .
CCCCCCC(=O)Nc1cc2nc3[nH]c(=O)[nH]c(=O)c3nc2cc1C | -6.2 | 0.96
CCOc1ccc(C(=O)OCc2cc(=O)n3nc(C)sc3n2)cc1 | -0.63 | .
O=C1C=CC(=O)N1c1ccc(-c2nc3ccccc3o2)cc1 | . | -0.92
CCC(C(=O)N1CCCC1)n1c2ccccc2c2nc(=O)cc(C)n21 (configuration not stated) | . | -0.36
CCOc1cc(-c2nc(-c3ccc(OC)c(OC)c3)no2)cc(OCC)c1OCC | . | -1.8
CCN1CCN(c2c(S(=O)(=O)c3ccc(C)cc3)cnc3ccc(F)cc23)CC1 | 0.76 | -0.53
O=C(O)CSc1nnc(-c2ccc(O)cc2)o1 | 0.89 | -0.67
CC(C)CCNS(=O)(=O)c1ccc2c(c1)C(C)(C)C(=O)N2C | 1.8 | .
COc1ccc(-c2noc(NCCN3CCOCC3)n2)cc1 | -1.4 | .
NNC(=O)/C(=C\c1ccco1)NC(=O)c1ccccc1 | . | -2.4
O=C(CSc1nccn(-c2cccc(Cl)c2)c1=O)Nc1ccccc1F | -1.2 | .
